Screens as filed in PubChem BioAssay.
HIV Env fusion = inhibitors of HIV-1 Env-driven cell-cell fusion, primary screen, HeLa-JRFL effector, CEM21 target cells, luciferase; AID 651610, 2012; hit rate 1.1% among 360,000; inhibition, % at 12.3 µM;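 active means mean replicate inhibition score of at least 50 and every replicate individually at or above 50; inconclusive means only one of the two criteria met; inactive means mean below 50 and not all replicates reaching 50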;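 further: 0% = plate neutral controls and 100% = maraviroc near 300 nM; one replicate is shown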
UUG fidelity = modulators of yeast start codon fidelity, primary screen, whole organism, S. cerevisiae, single point, plate reader; S. cerevisiae UUG-firefly luciferase reporter, luminescence/redox ratio; AID 602363, 2012; hit rate 0.13% among 350,000; activity score, % at 18.7 µM;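 active means replicate mean at a twofold rise or more, about +100% in these data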;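 further: firefly luciferase made from a UUG start codon reports start codon fidelity; reporter light over untreated wells divided by growth signal over untreated wells; some hits fall short of that in this replicate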
The depositor's hits bear a star; ? = inconclusive; [ ] = dose if it differs, or a comment. This is a subset; count on the stated rates, not on these rows.

HIV Env fusion,UUG fidelity,SMILES
4[16.7 µM],110*,C/C=C/c1ccc2c(c1)O[C@@H](CN(C)Cc1cncnc1)[C@@H](C)CN([C@H](C)CO)S2(=O)=O
-21[16.7 µM],26,C[C@@H]1CCCCO[C@@H](CN(C)S(=O)(=O)c2ccc(F)cc2)[C@@H](C)CN([C@H](C)CO)C(=O)c2cc(NS(=O)(=O)c3cccs3)ccc2O1
-9[16.7 µM],-9,CN1CCN(C(=O)C[C@H]2CC[C@@H]3[C@H](COC[C@H](O)CN3C(=O)C3CCOCC3)O2)CC1
28[16.7 µM],-20,O=C(C[C@@H]1C=C[C@@H](NC(=O)c2ccc3c(c2)OCO3)[C@@H](CO)O1)NCc1ccc(Cl)cc1
59*[16.7 µM],22,COc1ccc(S(=O)(=O)N(C)C[C@@H]2Oc3ccc(N(C)C)cc3C(=O)N([C@H](C)CO)C[C@@H]2C)cc1
8[16.7 µM],5,COc1ccc(NC(=O)Nc2ccc3c(c2)C(=O)N([C@H](C)CO)C[C@@H](C)[C@H](CN(C)C(=O)Nc2ccc(F)cc2)O3)cc1
9[16.7 µM],-13,C[C@@H]1CN([C@H](C)CO)C(=O)Cc2cc(NC(=O)CCC(F)(F)F)ccc2O[C@@H]1CN(C)C(=O)Nc1cccc2ccccc12
?,10,C[C@@H]1CN([C@H](C)CO)S(=O)(=O)c2ccc(C3=CCCCC3)cc2O[C@H]1CN(C)C(=O)C1CC1
36[16.7 µM],-8,C[C@@H]1CN([C@@H](C)CO)C(=O)Cc2cc(NS(C)(=O)=O)ccc2O[C@H]1CN(C)Cc1ccc(C(F)(F)F)cc1
16[16.7 µM],0,C[C@@H]1CN([C@H](C)CO)C(=O)Cc2cc(NS(=O)(=O)c3cccs3)ccc2O[C@@H]1CN(C)S(=O)(=O)c1ccc(Cl)cc1

Other entries follow.
HIV Env fusion,UUG fidelity,SMILES
1[16.7 µM],-4,C[C@@H]1CN([C@@H](C)CO)C(=O)c2cc(C#Cc3ccc(F)cc3)cnc2O[C@H]1CN(C)C(=O)Nc1ccc(F)cc1
-4[16.7 µM],12,C[C@@H]1CCCCO[C@@H](CN(C)S(=O)(=O)c2ccc(F)cc2)[C@H](C)CN([C@H](C)CO)C(=O)c2cc(NC(=O)CCC(F)(F)F)ccc2O1
7[16.7 µM],16,C[C@@H]1CN([C@H](C)CO)S(=O)(=O)c2ccc(/C=C/c3ccccc3)cc2O[C@H]1CN(C)C
-19[16.7 µM],15,C[C@@H]1CCCCO[C@H](CN(C)Cc2ccccc2)[C@H](C)CN([C@H](C)CO)C(=O)c2cc(NS(=O)(=O)c3ccc(F)cc3)ccc2O1
-8[16.7 µM],-3,C[C@@H]1CCCCO[C@H](CN(C)C(=O)c2ccccc2)[C@@H](C)CN([C@@H](C)CO)C(=O)c2cc(NC(=O)Nc3cccc4ccccc34)ccc2O1
5[16.7 µM],-14,C[C@@H]1CN([C@H](C)CO)C(=O)c2cc(NC(=O)Nc3cccc4ccccc34)ccc2O[C@@H](C)CCCCO[C@@H]1CN(C)Cc1ccc(C(F)(F)F)cc1
2[16.7 µM],13,C[C@H](CO)N1C[C@H](C)[C@H](CN(C)C)OCCCC[C@H](C)Oc2ccc(NC(=O)Nc3cccc4ccccc34)cc2C1=O
-6[16.7 µM],-1,CN(C)C(=O)C[C@H]1C=C[C@H](NS(=O)(=O)c2ccccc2)[C@@H](CO)O1
-4[16.7 µM],16,C[C@H](CO)N1C[C@H](C)[C@H](CN(C)Cc2ccc(Oc3ccccc3)cc2)Oc2ccc(NC(=O)Cc3ccccc3)cc2CC1=O
14[16.7 µM],-5,C[C@H](CO)N1C[C@H](C)[C@H](CN(C)C(=O)c2cccnc2)Oc2cc(C3=CCCC3)ccc2S1(=O)=O

Shown as labelled records: part of the list above.
smiles: C[C@@H]1CN([C@H](C)CO)C(=O)c2cc(NC(=O)Nc3cccc4ccccc34)ccc2O[C@@H](C)CCCCO[C@@H]1CN(C)Cc1ccc(C(F)(F)F)cc1
- HIV Env fusion: 5[16.7 µM]
- UUG fidelity: -14

smiles: C[C@H](CO)N1C[C@H](C)[C@H](CN(C)C)OCCCC[C@H](C)Oc2ccc(NC(=O)Nc3cccc4ccccc34)cc2C1=O
- HIV Env fusion: 2[16.7 µM]
- UUG fidelity: 13

smiles: CN(C)C(=O)C[C@H]1C=C[C@H](NS(=O)(=O)c2ccccc2)[C@@H](CO)O1
- HIV Env fusion: -6[16.7 µM]
- UUG fidelity: -1

smiles: C[C@H](CO)N1C[C@H](C)[C@H](CN(C)Cc2ccc(Oc3ccccc3)cc2)Oc2ccc(NC(=O)Cc3ccccc3)cc2CC1=O
- HIV Env fusion: -4[16.7 µM]
- UUG fidelity: 16

(cont.)
HIV Env fusion,UUG fidelity,SMILES
-13[16.7 µM],0,C[C@@H]1CCCCO[C@@H](CN(C)C(=O)CCC(F)(F)F)[C@@H](C)CN([C@@H](C)CO)C(=O)c2cc(NC(=O)Nc3ccccc3)ccc2O1
0[16.7 µM],0,C[C@H]1CN([C@@H](C)CO)S(=O)(=O)c2ccc(C#CC3(O)CCCC3)cc2O[C@H]1CN(C)C(=O)Cc1ccncc1
-44[16.7 µM],-7,Cc1noc(C)c1S(=O)(=O)Nc1ccc2c(c1)C(=O)N([C@H](C)CO)C[C@@H](C)[C@@H](CN(C)S(=O)(=O)c1ccc(F)cc1)OCCCC[C@H](C)O2
-12[16.7 µM],-9,C[C@H]1CN([C@@H](C)CO)C(=O)c2cc(C#Cc3ccncc3)cnc2O[C@@H]1CN(C)C(=O)CN(C)C
56*[16.7 µM],-5,Cc1ccc(S(=O)(=O)N(C)C[C@@H]2Oc3ccc(NC(=O)Nc4cccc5ccccc45)cc3CC(=O)N([C@@H](C)CO)C[C@@H]2C)cc1
-13[16.7 µM],-20,O=C(C[C@H]1CC[C@H](NC(=O)c2cccnc2)[C@@H](CO)O1)NCCN1CCCCC1
10[16.7 µM],-6,Cc1ccc(S(=O)(=O)Nc2ccc3c(c2)C(=O)N([C@H](C)CO)C[C@H](C)[C@@H](CN(C)C)OCCCC[C@@H](C)O3)cc1
7[16.7 µM],-9,C[C@@H]1CN([C@@H](C)CO)C(=O)c2cccc(NC(=O)c3cnccn3)c2O[C@H]1CN(C)CC1CCCCC1
8[16.7 µM],8,O=C(C[C@@H]1CC[C@@H](NC(=O)Nc2ccccc2F)[C@@H](CO)O1)NCc1ccc(Cl)cc1
2[16.7 µM],-3,C[C@@H]1CCCCO[C@@H](CN(C)Cc2ccc(Cl)c(Cl)c2)[C@@H](C)CN([C@@H](C)CO)C(=O)c2cc(NC(=O)Nc3ccc(F)cc3)ccc2O1

Going on with the list.
HIV Env fusion,UUG fidelity,SMILES
-5[16.7 µM],5,CC(C)C#Cc1cnc2c(c1)C(=O)N([C@H](C)CO)C[C@H](C)[C@H](CN(C)C(=O)Nc1ccccc1F)O2
3[16.7 µM],-2,C[C@H]1CN([C@@H](C)CO)C(=O)c2cccc(NS(=O)(=O)c3ccccc3)c2O[C@@H]1CN(C)S(=O)(=O)c1ccc(F)cc1
-8[16.7 µM],7,Cc1noc(C)c1NC(=O)Nc1ccc2c(c1)C(=O)N([C@@H](C)CO)C[C@@H](C)[C@@H](CN(C)C(=O)Nc1c(C)noc1C)O2
-12[16.7 µM],-5,C[C@@H]1CCCCO[C@@H](CN(C)C(=O)C2CCCCC2)[C@H](C)CN([C@H](C)CO)C(=O)c2cc(NS(=O)(=O)c3ccccc3)ccc2O1
-18[16.7 µM],7,CCC(=O)N(C)C[C@H]1Oc2cc(C#CC3CCCCC3)ccc2S(=O)(=O)N([C@@H](C)CO)C[C@H]1C
-9[16.7 µM],16,C[C@@H]1CN([C@H](C)CO)C(=O)c2cc(NC(=O)Cc3ccccc3)ccc2O[C@@H](C)CCCCO[C@H]1CN(C)C(=O)CCC(F)(F)F
-14[16.7 µM],34,C[C@H](CO)N1C[C@H](C)[C@@H](CN(C)Cc2cncnc2)Oc2ncc(-c3cccc(F)c3)cc2C1=O
-4[16.7 µM],-10,C[C@H](CO)N1C[C@H](C)[C@@H](CN(C)S(=O)(=O)c2ccccc2)OCCCC[C@H](C)Oc2ccc(NS(=O)(=O)c3cn(C)cn3)cc2C1=O
-13[16.7 µM],-3,CNC[C@H]1Oc2cc(-c3cccc(C(=O)N(C)C)c3)ccc2S(=O)(=O)N([C@H](C)CO)C[C@@H]1C
8[16.7 µM],-14,COCc1cn(CC[C@@H]2CC[C@@H](NC(=O)Cc3cccnc3)[C@@H](CO)O2)nn1

Additional records follow.
HIV Env fusion,UUG fidelity,SMILES
14[16.7 µM],3,Cc1ccccc1NC(=O)Nc1ccc2c(c1)C(=O)N(C)[C@@H]1CC[C@@H](CC(=O)O)O[C@@H]1CO2
20[16.7 µM],-8,CCCC#Cc1cnc2c(c1)C(=O)N([C@@H](C)CO)C[C@@H](C)[C@@H](CN(C)C(=O)C1CCOCC1)O2
-56[16.7 µM],8,COCC(=O)N(C)C[C@H]1Oc2cc(-c3cccnc3)ccc2S(=O)(=O)N([C@H](C)CO)C[C@@H]1C
-11[16.7 µM],-21,C[C@H]1CN([C@@H](C)CO)C(=O)c2cc(NS(C)(=O)=O)ccc2O[C@H]1CN(C)Cc1ccccc1
-15[16.7 µM],4,CC(C)NC(=O)Nc1ccc2c(c1)C(=O)N([C@@H](C)CO)C[C@@H](C)[C@@H](CN(C)Cc1ccc(C(F)(F)F)cc1)OCCCC[C@H](C)O2
-2[16.7 µM],-6,COc1ccc(S(=O)(=O)N(C)C[C@H]2Oc3ccc(NC(=O)Cc4cn(C)c5ccccc45)cc3CC(=O)N([C@@H](C)CO)C[C@@H]2C)cc1
7[16.7 µM],-1,CCCN(C)C[C@@H]1Oc2cc(C#Cc3ccc(F)cc3)ccc2S(=O)(=O)N([C@H](C)CO)C[C@H]1C
20[16.7 µM],10,CCCC#Cc1ccc2c(c1)O[C@@H](CN(C)Cc1cncnc1)[C@H](C)CN([C@@H](C)CO)S2(=O)=O
-10[16.7 µM],2,O=C(C[C@@H]1C[C@H]2c3cc(NC(=O)CC4CC4)ccc3O[C@H]2[C@@H](CO)O1)NCc1ccc(-c2ccccc2)cc1
-1[16.7 µM],-11,CNC[C@H]1Oc2ccc(NC(=O)NC(C)C)cc2C(=O)N([C@H](C)CO)C[C@H]1C

Some of the entries so far, with two lines to a compound:
Second line of a record: HIV Env fusion, UUG fidelity
> CC(C)NC(=O)Nc1ccc2c(c1)C(=O)N([C@@H](C)CO)C[C@@H](C)[C@@H](CN(C)Cc1ccc(C(F)(F)F)cc1)OCCCC[C@H](C)O2
    -15[16.7 µM], 4
> COc1ccc(S(=O)(=O)N(C)C[C@H]2Oc3ccc(NC(=O)Cc4cn(C)c5ccccc45)cc3CC(=O)N([C@@H](C)CO)C[C@@H]2C)cc1
    -2[16.7 µM], -6

Remaining list, next part.
HIV Env fusion,UUG fidelity,SMILES
5[16.7 µM],-4,Cc1noc(C)c1NC(=O)Nc1ccc2c(c1)CC(=O)N([C@H](C)CO)C[C@@H](C)[C@@H](CN(C)C(=O)NC(C)C)O2
4[16.7 µM],3,O=C(C[C@@H]1C[C@@H]2c3cc(NC(=O)Nc4ccccc4F)ccc3O[C@@H]2[C@H](CO)O1)NCc1cc(F)ccc1F
4[16.7 µM],8,COCC(=O)N(C)C[C@H]1Oc2cc(C#C[C@H](C)O)ccc2S(=O)(=O)N([C@H](C)CO)C[C@@H]1C
-12[16.7 µM],0,O=C(C[C@H]1CC[C@@H](NC(=O)C2CC2)[C@H](CO)O1)NCc1ccncc1
-8[16.7 µM],-2,C[C@@H]1CN([C@H](C)CO)C(=O)c2cc(NC(=O)Nc3ccc(C(F)(F)F)cc3)ccc2O[C@@H](C)CCCCO[C@@H]1CN(C)Cc1ccc(C(=O)O)cc1
7[16.7 µM],4,C[C@H](CO)N1C[C@H](C)[C@@H](CN(C)C(=O)c2ccc(F)cc2)Oc2ncc(-c3ccc(F)cc3)cc2C1=O
-4[16.7 µM],-33,O=C(C[C@H]1C[C@@H]2c3cc(NS(=O)(=O)c4ccc(F)cc4)ccc3O[C@@H]2[C@@H](CO)O1)NCc1ccccn1
7[16.7 µM],-11,Cc1noc(C)c1NC(=O)N(C)C[C@@H]1OCCCC[C@H](C)Oc2ccc(NC(=O)C3CCCCC3)cc2C(=O)N([C@@H](C)CO)C[C@@H]1C
7[16.7 µM],-9,COc1ccc(S(=O)(=O)N(C)C[C@H]2Oc3ccc(NS(=O)(=O)c4cn(C)cn4)cc3CC(=O)N([C@H](C)CO)C[C@H]2C)cc1
9[16.7 µM],-16,O=C(Nc1ccc(F)cc1)N[C@H]1CC[C@H](CCn2cc(-c3ccc(F)cc3)nn2)O[C@H]1CO

(continued)
HIV Env fusion,UUG fidelity,SMILES
-18[16.7 µM],6,C[C@H](CO)N1C[C@H](C)[C@@H](CN(C)S(C)(=O)=O)Oc2ccc(NC(=O)Cc3cn(C)c4ccccc34)cc2C1=O
6[16.7 µM],-19,O=C(N[C@@H]1CC[C@@H](CC(=O)N2CCc3ccccc3C2)O[C@H]1CO)C1CCC1
0[16.7 µM],1,CN(C)CCCCNC(=O)[C@@H]1C[C@@H]2C(=O)N[C@@H](CCCCN(C)C)C(=O)N2[C@@H]1c1ccc(O)cc1
1[16.7 µM],-18,C[C@H]1CN([C@@H](C)CO)C(=O)c2cccc(N(C)C)c2O[C@H]1CN(C)S(C)(=O)=O
-10[16.7 µM],21,COc1ccc(NC(=O)Nc2ccc3c(c2)[C@@H]2C[C@H](CC(=O)NC4CCCC4)O[C@@H](CO)[C@@H]2O3)cc1
24[16.7 µM],1,CO[C@H]1CN(C)C(=O)c2ccc(NC(=O)c3cccc(F)c3)cc2OC[C@@H](C)N(C(C)=O)C[C@@H]1C

UUG fidelity, entries above that show a hit
HIV Env fusion,UUG fidelity,SMILES
4[16.7 µM],110*,C/C=C/c1ccc2c(c1)O[C@@H](CN(C)Cc1cncnc1)[C@@H](C)CN([C@H](C)CO)S2(=O)=O
